High-throughput results from PubChem BioAssay.
gsp ag = activates gsp, the McCune-Albright syndrome mutation; gsp mutant cells, cAMP HTRF, 30 min; control for the full effect not named in the record; Potency, µM (highest dose often 76.9 µM), inactives show at the top dose activation (cAMP increase), usual class: activators; actives 0.13% (n = 340,000); AID 624287; active = well fitted activation curve with a large enough effect; inconclusive = small, poorly fitted or top-dose-only effect, or another doubt; inactive = no such curve, though single readings can be large or run the other way; cell line not stated here;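 note: phosphodiesterase inhibitor Ro 20-1724 added with compounds to block cAMP breakdown; potency is the fitted concentration of half-maximal effect; nearly all actives have a fitted effect of over 60% in size; about a fifth of the inactives were tested at one dose only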
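Cells stably selected in G418 were plated at 2000/well, grown 16-24 hr, then given compounds in DMSO with the PDE inhibitor […] (300 uM solution added) for 30 min at 37C; cAMP was read by HTRF.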
PINK1 expr mod = changes PINK1 expression. Potency, µM (series often up to 76.6 µM), without a hit: at the top dose activation (PINK1 increase), hits mostly activators. PINK1 immunofluorescence, high-content cytometry, 24 h. AID 624263. actives 0.2% (n = 410,000); active = well fitted activation curve with a large enough effect; inconclusive = small, poorly fitted or top-dose-only effect; inactive = flat fitted curve, though single readings scatter; cell line not stated here;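 note: potency is the fitted concentration of half-maximal effect; % of control where 0% means no effect; nearly all actives have a fitted effect of over 65% in size; a mitochondrial uncoupler was the plate control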
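Stable cell line treated 24 h with compounds at 5 concentrations (CCCP controls), then fixed and immunostained for PINK1 plus nuclear and cell stains; PINK1 immunofluorescence quantified by laser-scanning microplate cytometry.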
Menin-MLL FL inh = displaces fluorescein MLL peptide from human menin; 290,000 tested, under 10 active; Fluorescence polarization, fluorescein-MLL peptide displacement from menin; FP activity change, % at 61.4 µM; inconclusive = falling polarisation curve, or a change in total fluorescence; inactive = total fluorescence flat and polarisation flat or rising; no compound was filed as active; the % refers to the polarisation; negative = inhibition;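 note: % of control where 0% means no effect; inhibitors lower the polarisation; unlabelled MLL peptide was the positive control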
Sfp inh = blocks B. subtilis Sfp PPTase activity; Q9F4F7; Biochemical Sfp PPTase activity, qHTS; Potency, µM, inactives show max response, negative = inhibition, usual class: inhibitors; actives 3.5% (n = 310,000); AID 1490; active = well fitted inhibition curve with a large enough effect; inconclusive = small, poorly fitted or top-dose-only effect, or another doubt; inactive = no such curve, though single readings can be large or run the other way;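 note: the enzyme is Sfp with the accession as filed and its product quenches rhodamine fluorescence; potency is the fitted concentration of half-maximal effect; 0% = enzyme reaction without inhibitor and -100% = no enzyme wells; top concentration of the series not given in the record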
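After 15 min at room temperature with compound, 15 nM Sfp received 5 uM rhodamine-CoA plus 12.5 uM BHQ-2-ybbR (50 mM Hepes pH 7.6, 10 mM MgCl2). Rate came from the fluorescence difference over 30 min, ex 525/em 598 nm.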
D2 agonist = agonists of human D2 dopamine receptor (beta-arrestin); P14416; DiscoveRx PathHunter D2 beta-arrestin, luminescence, 90 min; 100% = 57 uM dopamine signal; activation, % (no concentration beside the values); actives 0.084% (n = 360,000); AID 624465; in the data active = activation above about 40%; inconclusive = about 15% to 40%; inactive = below about 15%; note: compound concentration not given in the record; the text of the record calls up to 30% inactive
Target sequence (P14416 whole entry, looked up): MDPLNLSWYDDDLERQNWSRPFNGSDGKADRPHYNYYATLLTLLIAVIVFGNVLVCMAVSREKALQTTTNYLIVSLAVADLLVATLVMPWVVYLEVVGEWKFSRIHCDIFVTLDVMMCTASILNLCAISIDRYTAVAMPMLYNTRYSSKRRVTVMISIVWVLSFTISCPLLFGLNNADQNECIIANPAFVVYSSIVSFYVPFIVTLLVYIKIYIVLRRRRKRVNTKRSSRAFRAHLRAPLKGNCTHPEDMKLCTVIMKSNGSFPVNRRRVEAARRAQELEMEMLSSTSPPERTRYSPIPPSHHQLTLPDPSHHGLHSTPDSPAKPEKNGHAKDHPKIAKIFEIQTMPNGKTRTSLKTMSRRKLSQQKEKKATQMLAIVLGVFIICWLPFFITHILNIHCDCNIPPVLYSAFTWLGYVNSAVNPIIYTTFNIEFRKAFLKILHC
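Agonist mode: compounds alone added to overnight-plated D2 PathHunter cells for 90 min at 37 C, with 57 uM final dopamine (EC100) defining full response. Beta-arrestin recruitment detected by chemiluminescent reagent, read after 1 h at ambient temperature.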
gsp antag = antagonizes gsp, the McCune-Albright syndrome mutation. gsp-mutant cells, cAMP HTRF, 30 min; control for the full effect not named in the record. Potency, µM (titrated, usually from 76.9 µM), for the others: at the highest dose activity change, negative = inhibition, hits mostly inhibitors. actives 0.4% (n = 340,000); active = falling curve of any shape with a large fitted effect; inconclusive = falling curve, mostly with a smaller effect; inactive = flat or rising curve; cell line not stated here;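 note: intracellular cAMP measured with PDE inhibitor Ro 20-1724 present during compound exposure; potency is the fitted concentration of half-maximal effect; % is set by controls: 0 for no effect and ±100 for the full control effect; nearly all actives have a fitted effect of over 65% in size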
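Cells in G418 medium, seeded 16-24 h, 37C; buffer exchange to DPBS + 1 mM CaCl2, 0.5 mM MgCl2, 0.05% BSA; cpds in DMSO + […] (300 uM stock), 30 min 37C; HTRF cAMP detection.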
ClpP mod = qHTS Assay for Activators of ClpP; ATP-dependent Clp protease proteolytic subunit (Bacillus subtilis (strain 168)), P80244; purified B. subtilis ClpP, FRET peptide cleavage, 20 min; Potency, µM (titrated, usually from 57.5 µM), for the others: at the top dose activity change, negative = active; actives 1.9% (n = 340,000); active = well fitted falling curve with a large enough effect; inconclusive = small, poorly fitted or top-dose-only effect; inactive = no such curve, though single readings can be large or run the other way; note: potency is the fitted concentration of half-maximal effect; the source files actives as falling curves though it sought activators and does not explain the sign; nearly all actives have a fitted effect of over 65% in size; many hits overshoot -100%
Target sequence (P80244 whole entry, looked up): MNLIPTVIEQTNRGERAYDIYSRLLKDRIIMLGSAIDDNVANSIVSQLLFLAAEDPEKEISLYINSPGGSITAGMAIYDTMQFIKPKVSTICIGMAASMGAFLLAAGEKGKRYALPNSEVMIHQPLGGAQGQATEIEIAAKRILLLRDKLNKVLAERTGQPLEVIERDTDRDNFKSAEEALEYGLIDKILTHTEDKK
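ClpP 10 microg/mL final, pH 8 Tris/KCl buffer with BSA, glycerol, Tween-20; compound pinned in; FRET-FV substrate; RT 20 min; Ex320/Em430; ΔFRET vs ADEP 5.8 microM, DMSO, no enzyme.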
* hit, by the source's call; ? = inconclusive; . = not tested or not shown; & = joins results of further samples; [ ] = dose if it differs, or a comment.

Under each structure – gsp ag	PINK1 expr mod	Menin-MLL FL inh	Sfp inh	D2 agonist	gsp antag	ClpP mod
NS(=O)(=O)c1ccc(CCNC(=O)c2cc(S(=O)(=O)N3CCCCC3)ccc2Cl)cc1
→ -95%[inhibitor]	1.0%	.	.	-1.4	.	-4.8%
COc1cc(C(=O)Nc2cc(Cl)ccc2C)c(-n2cnnn2)cc1OC
→ 0%	-7.3%[38.3 µM]	-6.1	14%	0.9	-9%	0.4%
Cc1cnc(C(=O)N2CCN(S(=O)(=O)c3ccc(F)c(F)c3F)CC2)cn1
→ 11%	2.6%	.	.	-3.1	-12%	-2.2%
O=C1CC(N2CCc3ccccc32)C(=O)N1c1ccc(F)cc1 (configuration not stated)
→ ?	-0.8%	-2.3	21%	-5.4	6%	1.6%
Cc1cc(C(C)(C)C)ccc1Oc1cccc2c1S(=O)(=O)N(C1CCCC1)CC(COCc1ccccc1)O2 (configuration not stated)
→ .	2.5%	.	.	-3.1	-8%	-2.6%
COc1ccc(C2C=C(c3ccc(C)c(C)c3)Nc3ncnn32)c(OC)c1OC (configuration not stated)
→ -6%	10%	1.1	7%	-7.7	6%	-11%
COc1ccc(S(=O)(=O)N(CC(=O)N2CCN(c3ccccc3)CC2)c2ccccc2)cc1
→ -19%	.	-1.9	?	-3.7	3%	0.3%
COc1ccc(/C=C/CN2CCN(Cc3ccc(F)cc3)C(CCO)C2)cc1 (configuration not stated)
→ 29%[15.4 µM]	0.4%	2.0	12%	-1.8	7%	.
CCOC(=O)CC(NC(=O)c1cccc2c1C(=O)N(Cc1cccnc1)C2)c1ccc(OCC)c(OC)c1 (configuration not stated)
→ -29%	1.8%	1.3	1%	1.3	4%	.
O=C(NCCc1ccccc1)c1ccc2c(c1)OCCCO2
→ 20%	-0.2%	0.7	-14%	3.9	-1%	-1.0%
CCCCNC(=O)c1onc(CSc2ccc(C)c(C)c2)c1C(=O)O
→ -7%	1.3%	1.5	19%	-5.0	-17%	-1.3%
CC(C)(C)c1ccc2c(c1)OC(C(=O)N/N=C\c1ccc(-c3cccc(C(=O)O)c3)o1)CO2 (configuration not stated)
→ 11%	0.2%	10	50µM*	-2.9	-25%	.
Cc1c(C(=O)NCc2ccc3c(c2)OCO3)oc2ccccc12
→ -2%	0.9%	2.3	-6%	-2.3	-6%	-1.5%
Cc1cc(C)c(N(C(=O)CN2C(=O)c3ccccc3S2(=O)=O)C(C(=O)NCC2CCCO2)c2ccc(F)cc2)c(C)c1 (configuration not stated)
→ -4%[15.4 µM]	4.5%	1.6	4%	4.8	?	0.8%
Cc1n[nH]c(C)c1CCNC(=O)C1CCC(=O)N(Cc2ccccc2F)C1 (configuration not stated)
→ ?	0.5%	.	13%	-1.5	1%	-0.3%
CCc1ccc(-c2c(C)sc(NC(C)=O)c2C(N)=O)cc1
→ 11%	9.3%	0.8	50µM*	2.0	-2%	8.3%
CCCN(CCC)C(=O)Cn1ccc(=N)c2ccccc21
→ 21%	-2.6%	2.8	2%	-2.1	5%	?
COC(=O)N1CCCCC1c1cc(C(=O)Nc2ccccc2Cl)no1 (configuration not stated)
→ .	3.4%	.	.	9.3	.	-0.3%
C=CCn1c(-c2sc(-c3ccccc3)nc2C)n[nH]c1=S
→ 3%[15.4 µM]	3.3%	3.6	15%	-1.2	-19%	-0.8%
Cc1ccc(-c2nc(CS(=O)(=O)CC(=O)N3CCOCC3)c(C)o2)cc1
→ -6%	0.2%	.	9%	-1.2	9%	-12%
COc1ccc(C2C(C(=O)c3cccs3)=C(O)C(=O)N2c2cccc(C)n2)cc1 (configuration not stated)
→ 30%[15.4 µM]	3.4%	-0.7	16%	1.7	-4%	.
Cc1ccc(C(=O)NC(=S)NCc2ccco2)cc1
→ -2%[15.4 µM]	1.7%	-3.6	-23%	-1.0	-8%	.
O=C(Cn1cnc([N+](=O)[O-])n1)c1ccccc1
→ -15%[15.4 µM]	0.5%	-0.9	-6%	3.7	13%	-1.8%
Cc1ccc(C2CC(=O)C=C(NCc3ccccc3)C2)cc1 (configuration not stated)
→ -11%[15.4 µM]	8.8%	7.2	14%	-5.0	11%	0.4%
Cc1cc(OCCN2CCCC2)cc(C(C)C)c1
→ 20%	-1.0%	0.8	10%	-5.4	8%	2.7%
CN(C(=O)c1ccc(Cl)cc1)C1CCS(=O)(=O)C1 (configuration not stated)
→ -19%	1.1%	.	.	-1.1	-2%	0.8%
CC(=O)c1cccc(OCc2cc(C(=O)N3CC4C[C@@H]5CC3C[C@H](C4)C5)no2)c1
→ -29%	6.8%	.	-7%	8.6	-22%	-1.1%
C=CCc1cc(CN2CC(C)OC(C)C2)c(O)c(OC)c1 (configuration not stated)
→ 21%	-1.0%	.	.	-2.1	10%	.
Cc1cccc(N2CCN(C(=O)c3ccccc3OCc3c(C)noc3C)CC2)c1C
→ 10%	0.6%	.	.	-2.6	-18%	-1.2%
Cc1sc(NC(=O)c2ccco2)c(CN2CCN(c3ccccn3)CC2)c1C
→ -9%	-2.4%	2.3	-19%	8.2	-20%	-7.2%
CC(C)CNC(=S)Nc1ccc(F)cc1
→ 1%	1.0%	0.5	-1%	0.5	11%	1.8%
O=C(Nc1ccccc1)Nc1cc(S(=O)(=O)N2CCOCC2)ccc1N1CCCC1
→ 4%	0.4%	-1.9	?	1.2	-4%	-1.6%
Cc1ccn2cc(-c3ccc4c(c3)NC(=O)CO4)nc2c1
→ 10%	-0.3%	0.1	3%	-3.9	-2%	3.7%
O=C(NCCC(=O)N1CCN(S(=O)(=O)c2ccc(Cl)cc2)CC1)Nc1ccccc1
→ 6%	-1.6%	.	.	-1.0	-16%	-1.2%
O=C(NCc1ccccn1)c1ccc(NS(=O)(=O)c2cccc([N+](=O)[O-])c2)cc1
→ 28%	0.2%	.	.	-1.3	1%	0.3%
COc1ccc(-c2cc(-c3ccco3)[nH]c(=O)c2C#N)cc1
→ -5%	3.9%	?	50µM*	-1.9	?	4.5%
CN(C)Cc1c[nH]c2nccnc12
→ 11%	-1.2%	.	.	-3.0	.	?
Cc1c[nH]c(=O)c([N+](=O)[O-])c1
→ 7%	-1.3%	3.7	6%	-1.1	8%	3.4%
CCOC(=O)C/C(C)=N/NC(=O)COc1ccccc1C
→ ?	4.3%	0.7	10%	-2.2	6%	-2.1%
OC(COc1cccc2ccccc12)CN1CCN(c2ccc(Cl)cc2)CC1 (configuration not stated)
→ 2%	?	-7.5&2.3	9%&-7%	3.5	5%	-2.7%
COc1ccc(-c2nc(NC(=O)c3[nH]c(C)c(C(C)=O)c3C)sc2C)cc1
→ 6%[15.4 µM]	2.0%	-1.4	-9%	1.9	-24%	.
Cc1onc(-c2ccccc2)c1C(=O)N/N=C/C(Br)=C/c1ccccc1
→ 3%	-0.3%	4.9	-6%	2.9	-14%	-19%
COc1cc(-c2nnn(CC(=O)N3CCOCC3)n2)cc(OC)c1OC
→ 7%	-1.0%	-0.5	16%	-4.1	12%	1.1%
CCCCOC(=O)CSc1nc2ccccc2o1
→ -5%[15.4 µM]	0.4%	2.9	-8%	-4.8	7%	.
Cn1cc(-c2nc3cnc(Oc4ccccc4)nc3n(CCC#N)c2=O)c2ccccc21
→ .	0.0%	?	6%	.	.	.
Cc1cc(C)cc(-n2ncc3c2CCCC3NC(=O)CCN2CCCC2=O)c1 (configuration not stated)
→ -11%[15.4 µM]	2.2%	.	8%	-4.9	5%	0.9%
O=C(CN(Cc1ccccc1Cl)C(=O)c1ccc(CN2CCOCC2)o1)NCC1CCCO1 (configuration not stated)
→ -10%	-5.0%	0.8	11%	2.9	3%	-2.3%
CC(Oc1cccc(Cl)c1)C(=O)Nc1ccccc1N1CCCCC1 (configuration not stated)
→ ?	?	.	.	-1.5	-9%	-4.2%
CC(=O)c1cccc(OCC(=O)OCC(=O)Nc2cc(S(=O)(=O)N3CCCCC3)ccc2C)c1
→ 10%	0.1%	.	.	0.6	-18%	-12%
C[C@@H]1CCCCO[C@@H](CN(C)S(=O)(=O)c2ccccc2)[C@@H](C)CN([C@H](C)CO)C(=O)c2cc(N(C)C)ccc2O1
→ -12%	0.5%	.	.	-6.4	.	-5.7%

Other compounds:
Under each structure – gsp ag	PINK1 expr mod	Menin-MLL FL inh	Sfp inh	D2 agonist	gsp antag	ClpP mod
CCCC1=C(C(=O)OCC)C(c2ccc(OC)c(CSc3ccccn3)c2)C(C#N)=C(N)O1 (configuration not stated)
→ -30%[inhibitor]	7.6%	-2.2	-10%	-5.4	-26%	-4.7%
O=C(NCC1CCN(Cc2ccccc2Cl)CC1)Nc1cccc(Cl)c1
→ 5%[15.4 µM]	-0.8%	-1.9	-8%	-4.4	3%	.
CNc1ccccc1C(C)(C)c1cn(-c2ccc([N+](=O)[O-])cc2)nn1
→ 17%	5.0%	0.3	9%	-1.9	-1%	.
CC(SCc1ccccc1)C(=O)N/N=C/c1ccc(OCC(=O)NCc2ccco2)cc1 (configuration not stated)
→ -26%	0.7%	6.6	3%	2.5	?	-7.8%
